Source: PubChem BioAssay
Beta2AR agonist = human beta-2 adrenergic receptor agonism by FAP; actives 0.43% (n = 340,000); P07550; response, % (test concentration not listed); Am2.2-beta2AR cells, FAP receptor internalization, flow cytometry; reference of the scale not given here;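 active = response above a set limit, near 3 SD of response in nonfluorescent compounds, cut at about 42% in these data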;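 note: stock transfer was 100 nL into about 11 µL; a reference agonist was the positive control; negative values mostly stem from fluorescent compounds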
Target sequence (P07550 whole entry, looked up): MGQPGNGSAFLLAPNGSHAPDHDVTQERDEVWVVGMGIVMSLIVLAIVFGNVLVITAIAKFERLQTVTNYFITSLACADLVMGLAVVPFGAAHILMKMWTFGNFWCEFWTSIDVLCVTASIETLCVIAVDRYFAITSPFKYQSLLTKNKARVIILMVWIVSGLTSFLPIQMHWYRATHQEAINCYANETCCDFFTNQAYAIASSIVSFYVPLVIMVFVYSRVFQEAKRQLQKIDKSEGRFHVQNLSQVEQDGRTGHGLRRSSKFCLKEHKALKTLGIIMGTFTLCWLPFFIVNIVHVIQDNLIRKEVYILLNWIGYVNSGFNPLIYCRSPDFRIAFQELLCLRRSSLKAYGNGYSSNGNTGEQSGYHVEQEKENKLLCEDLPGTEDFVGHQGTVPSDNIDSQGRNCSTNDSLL
Ecoli rRNA inh = selective bacterial rRNA inhibition in E. coli. actives 1.6% (n = 350,000). GFP signal change (wild-type ribosome), % (test concentration not listed). AID 720706. E. coli WT GFP vs humanized-ribosome RFP mutants, fluorescence, 24 h; active compounds read low; DMSO median 0, no signal -100;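 active = significant combined selectivity score with lowered wild-type GFP, culture density cut under 30%, mutant RFP and density less affected; inactive = any of these conditions unmet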; note: one replicate is shown; some compounds called inactive have numbers as strong as hits
Ecoli rRNA inh OD600 = further read-out of Ecoli rRNA inh, marked with its call; OD600 change, %; measured here: OD600 growth;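 optical density of the mix in the first replicate; 0 = DMSO median and -100 = no signal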
Ecoli rRNA inh RFP = recorded beside Ecoli rRNA inh, whose call it bears; RFP signal change, %; measured here: RFP humanized mutant strains;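 first replicate; 0 = DMSO median and -100 = no signal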
Starred values were filed as active, the others as inactive. Some of the compounds tested; count on the stated rates, not on these rows.

Sequence of screens – Beta2AR agonist	Ecoli rRNA inh	Ecoli rRNA inh OD600	Ecoli rRNA inh RFP
CN(CC(=O)Nc1cc(C(F)(F)F)ccc1-n1cncn1)Cc1ccccc1N1CCOCC1
    -16	4	5	-2.1
COc1ccc(CN(C)C(=O)CCC(=O)N2CCN(S(=O)(=O)c3ccc(Cl)cc3)CC2)c(OC)c1
    0	-1	-3	-4.3
CC(C)(C)OC(=O)N1CCCC(C(=O)Nc2cccc(C(=O)NCCc3ccccc3)c2)C1 (stereo unspecified)
    13	-29	-27	-4.1
Cc1cc(C)c(CN2CCN(C(=O)Cn3cnc4c(NCc5ccccc5)ncnc43)CC2)c(C)c1
    6	-20	-37	1.1
CCCNc1ncnc2[nH]ncc12
    -6	28	10	3.4
O=C1[C@H](Cc2ccccc2)NCC=CC[C@H](c2ccc(Cl)cc2)N1Cc1ccccc1
    17	-24	-54	8.2
Cc1cccc(C(=O)N(C(=O)c2cccc(C)c2)N(C)C)c1
    1	3	-26	-0.8
Nc1c(N(Cc2ccco2)C(=O)c2ccc(Br)cc2)c(=O)[nH]c(=O)n1Cc1ccccc1
    8	-5	-4	-0.9
CN(C)C(=O)CCc1ccc2c3c([nH]c2c1)[C@]1(C)[C@@H](C(=O)N2CCOCC2)C[C@H](CC(=O)NCc2cccc(C(F)(F)F)c2)C(=O)N1CC3
    -3	5	-1	-2.7
CCC1C(c2ccccc2)=CCC(C(=O)O)C1C (stereo unspecified)
    6	-12	-35	-5.2
C[C@]12c3[nH]c4ccc(Cl)cc4c3CCN1C(=O)[C@@H](CC(=O)NCc1ccco1)C[C@@H]2C(=O)N1CCCCC1
    -2	-3	3	1.2
COc1cc([N+](=O)[O-])ccc1-c1ccc(/C=C2\C(=O)ON=C2c2ccccc2)o1
    34	18	6	1.3
CC[C@]12c3[nH]c4cc(-c5ccco5)ccc4c3CCN1C(=O)[C@@H](CC(=O)NCCc1ccccn1)C[C@@H]2C(=O)N1CCN(C(=O)c2ccco2)CC1
    1	5	7	-0.3
OC(CSc1ccccc1)CN1CCN(c2cccc(Cl)c2)CC1 (stereo unspecified)
    2	1	5	4.3
O=C(COn1nnc2ccc(Cl)cc21)NC1CCS(=O)(=O)C1 (stereo unspecified)
    -4	8	8	-0.2
O=C(Cc1ccc(NC(=O)C2CCCN(C(=O)C3CCCC3)C2)cc1)Nc1ccc(C(=O)N2CCOCC2)cc1 (stereo unspecified)
    15	5	-1	-0.7
Cc1ccc(S(=O)(=O)NCCC(=O)NC2CCC(C)CC2)cc1 (stereo unspecified)
    7	5	8	-0.3
COc1ccc(C(=O)/C=C2\C(=O)Nc3ccc(Br)cc32)cc1
    2	12	13	4.6
CC(NC(=O)c1ccc(C(=O)c2ccccc2)cc1)c1ccc(S(N)(=O)=O)cc1 (stereo unspecified)
    6	0	-4	-1.1
O=C(C=C(O)c1ccc(Cl)cc1)C(=O)NNC(=O)C(O)(c1ccccc1)c1ccccc1
    0	-1	-2	7.1
Nc1cc2c(cc1Br)-c1ccc(F)cc1C2O (stereo unspecified)
    2	3	2	-1.7
CN(C(=O)c1cccc(NC(=O)Cc2ccc(NC(=O)C3CCCN(C(=O)C4CCCC4)C3)cc2)c1)C1CCCCC1 (stereo unspecified)
    0	2	-9	1.5
COc1ccc(CC(=O)OCC(=O)Nc2cccc(C(C)=O)c2)cc1OC
    -2	-3	0	-0.6
O=C(N[C@@H](CCC/[N+]([O-])=C/c1ccccc1)C(=O)O)OCc1ccccc1
    -6	21	17	-1.5
Nc1c(C(=O)CSc2n[nH]c(-c3ccccc3)n2)c(=O)[nH]c(=O)n1C1CC1
    -8	6	14	1.0
NNC(=O)CC1=NNC(=O)C1
    9	23	22	0.9
CNC(=O)NC(=O)CSc1ccc(S(=O)(=O)N(C)C2CCCCC2)cn1
    -2	7	5	0.2
Cc1cc2nc(N=C(N)N)nc(C)c2cc1C
    -16	8	-6	3.5
COc1ccccc1N1CCN(C(=O)c2ccccc2SCC(=O)N2CCCC2)CC1
    2	6	-2	0.4
CC(OC(=O)c1ccc([N+](=O)[O-])o1)C(=O)Nc1nc(-c2ccc(F)c(F)c2)cs1 (stereo unspecified)
    19	-23	-48	3.0
CN(CC(=O)Nc1ccccc1Br)CC(=O)NC(c1ccccc1)c1ccccc1
    -9	-33	-68	9.9
O=C(CSc1n[nH]c(=O)n1Cc1ccccc1)Nc1ccc(N2CCOCC2)cc1
    3	-7	-7	-2.2
S=C(Nc1ccccc1)Nc1ccc2ccccc2c1
    -1	-33	-72	-6.7
CCOC(=O)Cc1csc(SCC(=O)Nc2ccc(C)cc2F)n1
    -4	-2	4	-1.3
O=C(CNc1ccccc1F)Nc1cccc(S(=O)(=O)N2CCCCC2)c1
    10	3	-2	0.7
COc1cc2c(c(OC)c1OC)-c1ccc(SC)c(=O)cc1C(NC(=O)C(F)(F)F)CC2 (stereo unspecified)
    3	7	6	1.0
CN(C(=O)c1cccc(NC(=O)Cc2ccc(NC(=O)C3CCN(C(=O)C4CC4)CC3)cc2)c1)C1CCCCC1
    -2	0	-2	-3.5
N#CC1(Nc2ccc(C(=O)O)cc2)CCCC1
    3	6	14	-4.9
CC1CC(=O)N(CCc2ccccc2)C(=O)C1
    1	10	18	0.4
CCc1nc(N)nc(N)c1-c1ccc(Cl)c([N+](=O)[O-])c1
    1	0	-2	-9.6

One compound at a time, as listed above:
Listed for `CNC(=O)NC(=O)CSc1ccc(S(=O)(=O)N(C)C2CCCCC2)cn1` = Beta2AR agonist = -2; Ecoli rRNA inh = 7; Ecoli rRNA inh OD600 = 5; Ecoli rRNA inh RFP = 0.2
Listed for `CCc1nc(N)nc(N)c1-c1ccc(Cl)c([N+](=O)[O-])c1` = Beta2AR agonist = 1; Ecoli rRNA inh = 0; Ecoli rRNA inh OD600 = -2; Ecoli rRNA inh RFP = -9.6

Grouped by structure: those above containing a COOH group
Sequence of screens – Beta2AR agonist	Ecoli rRNA inh	Ecoli rRNA inh OD600	Ecoli rRNA inh RFP
CCC1C(c2ccccc2)=CCC(C(=O)O)C1C (stereo unspecified)
    6	-12	-35	-5.2
O=C(N[C@@H](CCC/[N+]([O-])=C/c1ccccc1)C(=O)O)OCc1ccccc1
    -6	21	17	-1.5
N#CC1(Nc2ccc(C(=O)O)cc2)CCCC1
    3	6	14	-4.9

Additional compounds follow.
Sequence of screens – Beta2AR agonist	Ecoli rRNA inh	Ecoli rRNA inh OD600	Ecoli rRNA inh RFP
Cc1cccc(C2=NN(c3ccccc3)[C@@H](C(=O)N3CCOC3=O)[C@@H]2C)c1
    0	7	9	2.4
CC(=O)Nc1ccc(SCC(=O)NNC(=O)CN(C)S(=O)(=O)c2ccc(C)cc2)cc1
    -3	14	18	2.3
Cc1ccc(-c2nnc(SCC(=O)NCC3CCCO3)nc2-c2ccc(C)cc2)cc1 (stereo unspecified)
    -2	-20	-28	-7.0
Cc1ccc2c(C)nc(Nc3nc(CSc4nc5ccccc5s4)cc(=O)[nH]3)nc2c1
    -15	4	-2	4.7
O=[N+]([O-])c1ccc(S(=O)(=O)NN=C2CCCCC2)cc1
    -5	3	14	2.4
OCC1OC(O)CC(O)C1O (stereo unspecified)
    -4	6	-1	2.1
Cc1ccc(S(=O)(=O)N2C[C@@H]3[C@H]4CC[C@H](C4)[C@@H]3[C@@H](C)[C@@H]2c2ccco2)cc1
    -5	7	12	2.5
Cc1[nH]c2ccc(C(=O)OC(C)C(=O)N(C)C3CCCCC3)cc2c1C (stereo unspecified)
    -4	-24	-28	0.2
CCOC(=O)C=C(C(=O)OCC)C(=O)OCC
    29	21	10	-5.1
Cc1ccc(S(=O)(=O)N2CC=C(N)N2)cc1
    -1	6	10	-3.0
CCc1nnc(NC(=O)[C@@H](NS(=O)(=O)c2ccc3c(c2)OCCO3)C(C)C)s1
    2	7	5	-0.3
CN(Cc1ccccc1)C(=O)c1cccc(NC(=O)Cc2ccc(NC(=O)C3CCCN(C(=O)CCc4ccccc4)C3)cc2)c1 (stereo unspecified)
    6	2	7	4.0
OCC(O)C1OC(c2ccco2)OC(CO)C1O (stereo unspecified)
    -1	10	10	0.5
Fc1ccccc1CSc1ncnc2c1ncn2C1CCCO1 (stereo unspecified)
    -1	-13	-43	-1.6
O=C(COC(=O)c1cc([N+](=O)[O-])ccc1N1CCCC1)Nc1ccccc1OC(F)F
    8	-23	-21	4.9
CCCCCCCCNS(=O)(=O)CCNCCc1ccccc1
    -6	-20	-57	13
CC(C)(C)S(=O)(=O)N1Cc2cc(=O)n(Cc3ccccc3)c(CCO)c2[C@H]1CCO
    9	3	5	0.6
CC(C)(C)NC(=O)C[C@H]1C[C@H](C(=O)N2CCCCC2)[C@@]2(C)c3[nH]c4ccc(Cl)cc4c3CCN2C1=O
    5	-3	-6	3.5
CCC(=NN=C(CC)c1ccccc1O)c1ccccc1O
    -3	-4	-23	-1.9
O=C(O)c1cccc2c1Oc1ccccc1S2(=O)=O
    -34	20	26	11
Cc1ccc(NC(=O)Cn2cnc(C(=O)Nc3ccc(C)c(C)c3)n2)cc1C
    2	15	21	-0.7
CC(C)(C)OC(=O)N1CCC(C(=O)Nc2cccc(C(=O)NC3CC3)c2)CC1
    1	2	-1	2.0
C#CCOCCOCCOCCNc1nc(N2CCN(C(=O)[C@H]([C@@H](C)CC)n3cc(CCC(=O)O)nn3)CC2)nc(N2CCN(C(=O)[C@H](Cc3ccc(O)cc3)n3cc(CCO)nn3)CC2)n1
    -6	10	11	0.6
COc1ccc(/C=C(\NC(=O)c2ccccc2)C(=O)N2CCC(C)CC2)cc1
    6	1	-8	3.6
Nc1nccc(SCc2ccc(Cl)cc2Cl)n1
    0	-2	4	-0.3
COc1ccc2[nH]c3c(c2c1)CCN1C(=O)C(CC(=O)NCCC2=CCCCC2)C[C@H](C(=O)N(C(C)C)C(C)C)[C@@]31C (stereo partly specified)
    -8	-1	-7	-3.5
Cc1noc(C)c1C(=O)Nc1nc2ccccc2s1
    -4	7	6	-1.0
N=c1c2ccccc2nnn1-c1ccccc1[N+](=O)[O-]
    -4	-4	9	-3.1
O=[N+]([O-])c1ccc2cc[nH]c2c1
    -1	-5	3	0.0
O=C(Cc1ccc(NC(=O)C2CCN(C(=O)C3CC3)CC2)cc1)Nc1ccc(C(=O)N2CCOCC2)cc1
    1	10	17	3.6
CC(=O)Nc1ccc(C(=O)Nc2cc(S(=O)(=O)N3CCOCC3)ccc2N2CCOCC2)cc1
    12	5	7	0.1
CC(=O)SC1CC(=O)C=C2CCC3C4CCC(=O)OC4(C)CCC3C21C (stereo unspecified)
    1	10	10	4.1
COc1ccc(C=CC(=O)C=CC=Cc2ccccc2)cc1
    -3	12	18	9.4
CC(OC(=O)CSc1ccccc1)C(=O)NC1CCCCC1C (stereo unspecified)
    0	-1	-3	0.3
CCOc1cc(N2CCOCC2)c(OCC)cc1NC(=O)CN1C(=O)NC(C)(c2ccc(OC)cc2)C1=O (stereo unspecified)
    -4	5	1	0.8
COc1ccc(C(=O)NNC(=O)c2cccc3ccccc23)cc1
    -1	6	4	-0.6
O=[N+]([O-])c1ccccc1N=Nc1c(O)[nH]c2ccc(F)cc12
    -4	8	25	0.8
CN(c1ccccc1)S(=O)(=O)c1ccc(C(=O)NCc2ccco2)cc1
    -1	2	-6	-0.8
CC1=CC(C)C2(COC(c3ccc[n+](C)c3)OC2)C(C)C1 (stereo unspecified)
    4	7	2	2.9
COc1ccc(C2C(C)C(=O)C(C)C(c3ccc(OC)cc3)N2N=O)cc1 (stereo unspecified)
    -4	-3	0	-0.1
COc1ccc(CCNC(=O)c2ccc(NC(=O)CC3SC(N4CCCCC4)=NC3=O)cc2)cc1OC (stereo unspecified)
    -6	-17	-22	4.6
CSCCC(NS(=O)(=O)c1ccc(Cl)cc1)C(=O)N1CCN(c2ccccc2)CC1 (stereo unspecified)
    1	20	18	4.6
Clc1ccc2nc(CSc3nnc(-c4c[nH]c5ccccc45)o3)cn2c1
    -18	-5	-9	-1.0
CCC(CC)CN1CCC(CN2CCNC(=O)C2=O)CC1
    -9	9	13	-1.0
N=C1C=CC(=C(c2ccc(N)cc2)c2ccc(N)cc2)C=C1
    -15	-64	-75	-11
O=C(COC(=O)c1ccccc1NCCO)Nc1ccc(S(=O)(=O)NC2=NCCCCC2)cc1
    4	1	5	0.2
CC[C@]12C(=O)N(C)C[C@H]([C@@H]3C(=O)N(Cc4ccccc4)C(=O)[C@@H]31)N2C(=O)c1ccc(F)cc1
    -3	5	4	-1.1
O=C(Cc1ccc(NC(=O)C2CCN(C(=O)C3CCCC3)CC2)cc1)Nc1ccc(C(=O)N2CCOCC2)cc1
    -1	0	13	3.8
Cc1cc(C)n2nc(SC(C)C(=O)N3CCOCC3)nc2n1 (stereo unspecified)
    -4	7	8	1.2
COc1cc2oc(=O)cc(-c3ccc(-c4ccc(C#N)cc4)cc3)c2c(OC)c1OC
    -6	4	11	-0.8
N#CC1(C#N)OC12CCS(=O)(=O)c1ccccc12 (stereo unspecified)
    -7	12	22	0.8
CCCn1c(N)c(C(=O)COC(=O)COc2ccc(Cl)c(C)c2)c(=O)n(C)c1=O
    -2	2	-5	10
CC(=O)Nc1ccc(C=NNc2nnc(NN=Cc3ccc(NC(C)=O)cc3)c3ccccc23)cc1
    11	-16*	11*	-3.3*
